VACV mCherry inh – inhibitors of vaccinia virus infection (mCherry reporter signal); Potency, µM (doses to about 36.5 µM), for the others: top-dose activity change, negative = inhibition, most hits filed as inhibitors; Vaccinia virus mCherry reporter infection, fluorescence; about a quarter of the inactives have no number; 310,000 tested, 0.63% active; active = well fitted inhibition curve with a large enough effect; inconclusive = small, poorly fitted or top-dose-only effect; inactive = no such curve, though single readings can be large or run the other way; tested in A549 cells; note: nearly all actives have a fitted effect of over 35% in size; inactives centre near -10
Vaccinia Venus – vaccinia inhibition (Venus reporter); Vaccinia virus Venus reporter expression, fluorescence; Potency, µM (titrated, usually from 36.5 µM), inactives show at the highest dose activity change, negative = inhibition, hits mostly inhibitors; 330,000 tested, 0.46% active; AID 720580; active means well fitted inhibition curve with a large enough effect; inconclusive means small, poorly fitted or top-dose-only effect; inactive means no such curve, though single readings can be large or run the other way; tested in A549 cells; note: nearly all actives have a fitted effect of over 30% in size; inactives centre near -10
Starred values were filed as active, the others as inactive; i = inactive; ? = inconclusive; · = not tested or not shown; & = joins results of further samples; [ ] = remark or other dose. % is set by controls: 0 for no effect and ±100 for the full control effect; potency is the fitted concentration of half-maximal effect.

canonical_smiles,Vaccinia Venus,VACV mCherry inh
COc1ccccc1Nc1cc(N2CCOCC2)c2nonc2c1[N+](=O)[O-],-15%,i
CCN1c2ccccc2-c2nc(SCC(=O)Nc3c(C)cc(C)cc3C)ncc2S1(=O)=O,-16%,-26%
O=C(NCc1ccccn1)c1ccc2nc(C3CCCCC3)oc2c1,-12%,-15%
O=C(/C=N/NC(=O)c1ccccc1Br)c1ccccc1,-14%,-10%
CCC1(C2CCN(Cc3ccc(OC)cc3)CC2)NC(=O)N(CC2COc3ccccc3O2)C1=O (stereo not drawn),-5%,-9%
CC1=C(O)C(=O)[C@@H]2O[C@@H]2C1=O,-12%,i
O=C(NC1CCCC1)c1c(O)nc2sccn2c1=O,-10%,-16%
CN(C)c1ncnc2c1ncn2CCn1cnc2c(N(C)C)ncnc21,7%,-6%

Taken from above:
CN(C)c1ncnc2c1ncn2CCn1cnc2c(N(C)C)ncnc21 @ VACV mCherry inh: -6%
COc1ccccc1Nc1cc(N2CCOCC2)c2nonc2c1[N+](=O)[O-] @ Vaccinia Venus: -15%

Other entries.
canonical_smiles,Vaccinia Venus,VACV mCherry inh
COc1ccc2[nH]c(O)c(N=O)c2c1,-15%,i
COC(=O)c1ccc(/C=C/c2c(-c3ccsc3)oc3ccc(N4CCOCC4)cc23)cc1,-22%,-13%
COc1cc(/C=C/C(=O)OCC(=O)Nc2ccc(C)c(S(=O)(=O)N3CCCCC3)c2)ccc1O,-21%,?
CCOC(=O)c1c2n(c3c(NCc4ccccc4)ncnc13)CCCC2,-9%,·
CC(=O)Nc1ccc(S(=O)(=O)Nc2nc3ccc([N+](=O)[O-])cc3s2)cc1,2%,-8%
COc1ccc(OC(=O)OCc2ccccc2)cc1,-21%,-11%
COc1ccc(C(=O)CC(Sc2ccccc2N)c2ccc(OC)cc2)cc1 (stereo not drawn),0%,i
CC(C)C(NS(C)(=O)=O)c1nnc2n1CCN(Cc1ccnc3ccccc13)CC2 (stereo not drawn),-6%,-18%
COc1ccc(-c2nc(N)n(C(C)=O)n2)cc1,-12%,·
Cc1nc(NC(=O)C(C)(C)C)sc1C(=O)Cn1cc(CCc2ccccc2)nn1,-1%,i
CCNC(=O)Nc1cc(S(=O)(=O)N2CCOCC2)ccc1N1CCCCC1,-16%,-5%
CCOC(=O)C1=NNC2(c3ccc(C)cc3)C(=O)N(c3ccccc3)C(=O)C12 (stereo not drawn),-15%,?
COCc1c(C(=O)N2CCN(c3ccccc3O)CC2)cnn1-c1nccc(-c2cccs2)n1,-14%,-14%
COc1ccc(-c2csc(NC(=O)CN3C(=O)NC4(CCCC4)C3=O)n2)c(OC)c1,-20%,-9%
Cc1ccc(C)c(-c2ccc(=O)n(Cc3cccc(Br)c3)n2)c1,-21%,-6%
COc1ccc(-n2c(SCC(=O)NCC3CCCO3)nc3c([nH]c4ccccc43)c2=O)cc1 (stereo not drawn),0%,-10%
Cc1ccccc1NC(=O)Cc1nc(COC(=O)CNC(=O)c2ccc(Cl)cc2Cl)cs1,-5%,i
COc1cccc(CN(Cc2ccco2)C(c2ccc(F)cc2)c2nnnn2C(C)(C)C)c1 (stereo not drawn),?,·
O=c1c2ccccc2nc2n1C(CSCc1cccc(C(F)(F)F)c1)CS2 (stereo not drawn),?,·
Cc1ccc(S(=O)(=O)NCCC(=O)N2CCCCCCC2)cc1,-12%,-20%
COc1ccc(CO/N=C/c2c(C)[nH]c(=O)[nH]c2=O)cc1,-15%,·
CC(C)CCN(C(=S)Nc1cccc(F)c1)C(C)c1cccs1 (stereo not drawn),0%[7.34 µM],i[7.34 µM]
COC(=O)c1ccc2c(=O)n(CCN3CCOCC3)c(SCC(=O)Nc3ccccc3Cl)nc2c1,-2%,-3%
CCOC(=O)C(NCCCO)c1ccccc1 (stereo not drawn),-1%,i
CCOC(=O)C(CC)n1nc(C)n2c(cc3sccc32)c1=O (stereo not drawn),-12%,-26%
COc1ccc(NC(=O)N[C@@H](Cc2ccccc2)C(=O)NN)cc1,-10%,-17%
O=C(Cn1nnc(-c2ccc(Cl)cc2)n1)NCC1CCCCC1,-4%,-4%
CCOc1ccccc1N(CC(=O)N/N=C/c1cc(Br)ccc1OC)S(C)(=O)=O,-29%,?
CCOc1ccc(C(=O)NCCn2cc(SCC(=O)NCCc3ccc(OC)c(OC)c3)c3ccccc32)cc1,-9%,-15%
C/C(=N/OC(=O)N(C)C)c1ncc(C(F)(F)F)cc1N1CCOCC1,-9%,-22%
O=P(O)(Cc1ccccc1)c1ccccc1,-6%,i
COC(=O)CCC(=O)N1CCCC(C(=O)c2cc(F)ccc2F)C1 (stereo not drawn),7%,-12%
COC1CCN(C(=O)c2ccc(OC3CCN(CCc4ccccc4)CC3)cc2)CC1,-2%,5%
CC(=O)c1ccc(OCc2ccc(C(=O)c3ccccc3)cc2)cc1,-11%,-15%
CC(=O)c1ccc(S(=O)(=O)Nc2cccc(-c3ccc(N4CCOCC4)nn3)c2)cc1,-13%,i
CN1CCN(CCc2cn3ncc(C#N)c3nc2-c2ccc(F)cc2)CC1,-8%,-9%
CCOc1c2ccc(C(=O)NCCCCc3ccccc3)cc2nn1CC,-16%,i
Cc1cccc(OCC(=O)N/N=C/c2cn[nH]c2-c2ccc(Cl)c(Cl)c2)c1,-27%,-9%
c1coc(C2=Nc3cccc4cccc(c34)N2)c1,-14%,?
O=C(Nc1ccc(Cl)cc1Cl)[C@@H]1CC=C[C@@H]2CCN(C3CC3)C(=O)[C@@H]21,-6%,-16%
CCOc1cc(N2CCOCC2)c(OCC)cc1NC(=O)c1cccc(S(=O)(=O)N2CCOCC2)c1,-7%,i
COc1nc(N(C)C)nc(N(C#N)CCOC(C)=O)n1,-15%,-8%
CC(=O)NC(CCS(C)(=O)=O)C(=O)Nc1cccc(C)c1 (stereo not drawn),0%,i
COc1ccc(C2CC(=O)c3cc(-c4nc(-c5cccc([N+](=O)[O-])c5)cs4)c(=O)n(-c4ccc(F)cc4)c3C2)cc1 (stereo not drawn),-5%,-10%
O=[N+]([O-])c1cccc(C=NN=Cc2ccccc2O)c1,-18%,-26%
CCNc1ccc(C(=O)OC(C(=O)NC(N)=O)C(C)C)cc1[N+](=O)[O-] (stereo not drawn),-14%,i
COc1ccc(S(=O)(=O)N(C)CC(=O)NCCCN2CCOCC2)cc1Cl,0%,-9%
COc1cc(C2=Nc3c(c(C)nn3-c3ccccc3)P(=O)(N3CCOCC3)O2)cc(OC)c1OC (stereo not drawn),-8%,-11%
Cc1nc(NC(=O)/C=C/c2ccccc2)sc1C(=O)NCCO,-9%,-14%
O=C(CCn1c(=O)[nH]c2ccccc21)NCC1Cc2cc(Cl)cc(-c3ccncc3)c2O1 (stereo not drawn),-17%,i
COc1cccc(NC(=O)Nc2ccc(Br)cn2)c1,-15%,-12%
COc1cc(SC)ccc1C(=O)OCC(=O)NCCC1=CCCCC1,-7%,-17%
CCCOc1cccc(C(=O)Nc2nnn(CCC)n2)c1,-14%,-4%
CCCCCCN1C[C@@H](O)[C@H](n2cc(-c3ccc(F)cc3)nn2)C[C@@H]1c1ccc(OC)cc1,-16%,-11%
COc1ccccc1CNC(=O)C1CCC(=O)N1C(C)C (stereo not drawn),2%,-14%
CCN(CC)C(=O)[C@H]1C[C@H](CC(=O)NCCCn2ccnc2)C(=O)N2CCc3c([nH]c4ccc(Cl)cc34)[C@]12C,-26%,i

Filtered by structure, those above with bromine.
canonical_smiles,Vaccinia Venus,VACV mCherry inh
O=C(/C=N/NC(=O)c1ccccc1Br)c1ccccc1,-14%,-10%
Cc1ccc(C)c(-c2ccc(=O)n(Cc3cccc(Br)c3)n2)c1,-21%,-6%
CCOc1ccccc1N(CC(=O)N/N=C/c1cc(Br)ccc1OC)S(C)(=O)=O,-29%,?
COc1cccc(NC(=O)Nc2ccc(Br)cn2)c1,-15%,-12%

Continued.
canonical_smiles,Vaccinia Venus,VACV mCherry inh
O=C(CS(=O)(=O)c1ccccc1)N1CCCCCC1,12%,·
CC1CC(C)CN(c2oc(-c3ccccc3Cl)nc2C#N)C1 (stereo not drawn),-3%,-11%
Cc1ccnc(NCc2ccccc2O)c1,-15%,i
Cc1ccccc1OCC(=O)O/N=C(\N)Cc1cccs1,-2%,i
O=C(NCc1ccc(F)cc1)C(c1ccccc1)N(C(=O)c1csnn1)c1ccccc1 (stereo not drawn),-7%,i
COc1ccc(CC(=O)Nc2ccc3c(c2)OCO3)cc1S(=O)(=O)N1CCOCC1,-18%,i
CCOC(=O)Cc1ccc(NC(=O)N2CCC(CN3CCCCCC3)CC2)cc1,-11%,-8%
C/C(=N\Nc1ccc(F)cc1F)c1ccccc1O,-4%,-19%
Cc1cc(NC(=O)CSc2nc(-c3cccs3)cc(C(F)(F)F)n2)no1,-30%,-14%
O=C(N/N=C/c1cc(Br)c(Br)s1)c1ccncc1,?,?
CCOC(=O)c1c(C)c(C(=O)N2CCc3ccccc3C2)c(C)n1CC,-29%,-2%
C[C@@H](C(=O)NCc1ccco1)N1C(=O)N2CCc3c([nH]c4ccccc34)[C@@]2(C)C1=O,-16%,-7%
CSc1ncccc1C(=O)NC1CCCCCC1,-3%,-14%
COc1ccc(-n2nnnc2SCC(=O)Nc2cccc(O)c2)cc1,-8%,-14%
CN(Cc1ccccc1)c1nc(-c2cccc([N+](=O)[O-])c2)nc2ccccc12,2%,-3%
Cc1nc(N2CCN(c3ccccn3)CC2)c2c(C)c(C(=O)N3CCN(c4ccc(F)cc4)CC3)sc2n1,?,-22%
CCOC(=O)CN(C)Cc1cn(C)nc1-c1ccc(Oc2ccccc2)cc1,-10%,i
CC1CCN(C(=O)Cn2cc(SCC(=O)NCC3CCCO3)c3ccccc32)CC1 (stereo not drawn),-3%,-9%
O=c1[nH]c(-c2ccccc2)nc2sc(-c3ccccc3)cc12,-18%,-16%
COc1ccc2[nH]cc(CCN=C(N)N)c2c1,-15%,-25%
Nc1sc2c(c1C(=O)NCCc1ccccc1)CCCC2,2%,?
COc1ccc(C2=NOC(Cn3nc(C(=O)NCc4ccc(C)cc4)cc3-c3ccccc3)C2)cc1 (stereo not drawn),-19%,-12%
COC(=O)c1[nH]c2cc(OC)c(OC)cc2c1NC(=O)c1cccc(OC)c1,-14%,·
CCCCNC(=O)c1onc(CSc2cccc(OC)c2)c1C(=O)NCCCC,-18%,-3%
CC1(O)CC2C(CC1O)C2(C)C (stereo not drawn),0%,-6%
Cc1ccccc1-c1ccnc2[nH]n(-c3ccccc3)c(=O)c12,-16%&0%,-15%&-10%
CS(=O)(=O)c1ccc(Cl)c(NC(=O)CSc2n[nH]c(N)n2)c1,-2%,-10%
O=C(NNC(=O)c1ccccc1O)c1ccc(NS(=O)(=O)c2ccc(F)c(F)c2)cc1,-3%,-7%
CCCCn1c(N)c(N(CC)C(=O)c2cc(Br)ccc2Cl)c(=O)[nH]c1=O,-6%,-9%
O=C(NCCS(=O)(=O)c1ccc(Br)cc1)c1ccc(F)cc1,-18%,-16%
COc1ccc(C(=O)Nc2ccc(S(=O)(=O)N3CCCC3)cc2)cc1[N+](=O)[O-],-11%,-13%
O=C(c1cccnc1)N1CCN(C/C=C/c2ccccc2)CC1,10%,i
Cc1ccc2nc(SCC(=O)NCC3Cc4cccc(-c5nc(C)cnc5C)c4O3)[nH]c2c1 (stereo not drawn),0%,-11%
CCNC(=O)C1(C)CCCN1C(=O)c1ccc2c(c1)OCO2 (stereo not drawn),1%,15%
CCOC(=O)C1C(=O)C=C(c2cccs2)CC1c1ccccc1C (stereo not drawn),-10%,-3%
CC(=O)NS(=O)(=O)c1ccc(NC(=O)c2cc(-c3ccc(C)c(C)c3)nc3ccccc23)cc1,-19%,·
Cc1occc1-c1nnc(SCC(=O)NC2CCCCC2C)o1 (stereo not drawn),-7%,-19%
CCOC(=O)c1c(NC(=O)C2COc3ccccc3O2)sc(C)c1C (stereo not drawn),-22%,-18%
COc1ccc(C(=O)Cn2nnc(-c3ccccc3NC(=O)c3ccco3)n2)cc1,10%,·
O=[N+]([O-])c1ccccc1/C=N/N1CCN(c2ccncc2S(=O)(=O)N2CCCCC2)CC1,-24%,-21%
COC(=O)[C@]12CCCCC=C1N(Cc1ccc(Cl)cc1Cl)C(=O)[C@H](CC(=O)NCCCCc1ccccc1)C2,0%,-17%
O=C(Nc1ccc2oc(-c3ccc(Cl)cc3)nc2c1)c1ccc2ccccc2c1,-4%,-5%
N#Cc1cc(C(=O)c2cc(Cl)ccc2O)cn(-c2ccccc2)c1=O,-15%,i
O=c1c2sc3ccccc3c2n(Cc2cccc(F)c2)c(=O)n1CCc1ccccc1,3%,-3%
CCc1nnc(NC(=O)c2ccc(S(=O)(=O)NC3CCCCC3)cc2)s1,?,i
O=C(COC(=O)/C=C/c1cccs1)Nc1cccc(S(=O)(=O)N2CCOCC2)c1,1%,0%
CCCCCC(=O)N1C[C@@H](n2cc(COC(=O)c3ccccc3)nn2)[C@H](O)C[C@@H]1c1ccc(C)cc1,-17%,-5%
COCCn1c(SCCCc2ccccc2)nc2c1c(=O)[nH]c(=O)n2C,-14%,·

High-throughput results from PubChem.
